# HIV TAR-Tat = TAR RNA-Tat peptide displacers, HIV-1, primary screen, biochemical, FRET, FAM/TAMRA-labeled Tat. HIV-1 TAR RNA, Tat peptide displacement FRET; hits give high values. z-score (concentration not given with the values). 100,000 compounds, 0.6% hits. AID 1259389, 2018;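 also: score is relative to mean and SD of negative controls; some compounds called inactive have numbers as strong as hits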
# CDC25B-CDK2 inh = primary biochemical HTRF screen for blockers of M-phase inducer phosphatase 2 binding to CDK2/cyclin A. P30305+P24941. AID 1259370, 2018. z-score (concentration not given with the values). HTRF CDC25B-CDK2/CyclinA binding, anti-His/anti-Flag; hits give high values. 94,000 compounds, 0.72% hits;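 also: score is relative to mean and SD of negative controls; strong numbers were not always called active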
# The depositor's hits bear a star; . = not tested or not shown; & = joins results of further samples.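 The calls were made as follows: active = z-score from 3 up in half or more of its runs; inactive = the rest.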
# Start of the listing, in advance, three compounds:
no.	smiles	HIV TAR-Tat	CDC25B-CDK2 inh
1	Cn1c2c(c(=O)n(C)c1=O)C(c1cccc(Cl)c1)C1=C(CCCC1=O)N2 (centres undefined)	-1.5	1.4
2	CC(C)n1c(CN(C)Cc2ccccc2)nc2c1c(=O)n(C)c(=O)n2C	-0.54	-0.54
3	CSc1nc(NCCN2CCOCC2)c2sc3nc(C)c4c(c3c2n1)CC(C)(C)OC4	0.15	-1.2

# The listing (from the top)
no.	smiles	HIV TAR-Tat	CDC25B-CDK2 inh
1	Cn1c2c(c(=O)n(C)c1=O)C(c1cccc(Cl)c1)C1=C(CCCC1=O)N2 (centres undefined)	-1.5	1.4
2	CC(C)n1c(CN(C)Cc2ccccc2)nc2c1c(=O)n(C)c(=O)n2C	-0.54	-0.54
3	CSc1nc(NCCN2CCOCC2)c2sc3nc(C)c4c(c3c2n1)CC(C)(C)OC4	0.15	-1.2
4	COc1ccc(Nc2c(-c3cccc(O)c3)nc3ncccn23)cc1OC	0.76	-2.3
5	N#CC1=C(SCC(N)=O)NC(=O)CC1c1ccccc1Cl (centres undefined)	-0.14	-1.6
6	Cc1nc(Nc2ccc(F)cc2)nc2c1ncn2-c1ccc(F)cc1	-0.95	-0.22
7	O=C(CCCc1nnc2n3nc(-c4ccccc4)nc3c3ccccc3n12)NCc1ccccn1	0	-1.2
8	COc1ccc(-c2nnc3c4cc5c(cc4n(Cc4ccc(F)cc4)cc2-3)OCO5)cc1	2.6	-1.9
9	CCCCN1C(=O)C(O)(CC(=O)c2ccc(C)cc2C)c2cc(Br)ccc21 (centres undefined)	.	-0.86
10	CCOCCCN[C@H]1CS(=O)(=O)C[C@@H]1S(=O)(=O)c1ccc(F)cc1	0.54	-2.1
11	CC(C)(C)C(=O)Nc1ccc(F)cc1[N+](=O)[O-]	.	-0.27
12	COC(=O)c1c(NC(=O)Cc2coc3ccc(C)cc23)sc2c1CCC2	0.6	-1.1
13	COc1cc(C2NC(C(=O)O)CS2)ccc1OCc1ccccc1C (centres undefined)	0.07	1.5
14	COc1ccc(/C(C#N)=C/c2cnc(-c3ccccc3)[nH]2)cc1	.	-1.9
15	Cc1ccccc1-c1noc(-c2nnn(-c3ccc(Br)cc3)c2N)n1	-0.39	.
16	O=c1[nH]cnc2c1sc(=S)n2-c1ccccc1	.	-1.6&0.84
17	CC1CC(C)(C)NC(=S)N1CC(=O)N1CCN(c2ccc(F)cc2)CC1 (centres undefined)	.	-0.59
18	O=C(Cn1cc2c(n1)CCCC2)Nc1c(F)c(F)cc(F)c1F	.	-0.4
19	O=c1c2nncn2ccn1-c1ccc(F)cc1	1.9	-0.97
20	O=C(CSc1ncn[nH]1)N1CCN(c2nnc(-c3ccccc3)c3ccccc23)CC1	0.65	0.15
21	Clc1ccc(C2=CSC3=NNC4(CCCCC4)NN23)cc1	.	-0.31
22	O=c1c(NCc2ccc(Cl)cc2)nccn1Cc1ccc(F)cc1	-0.11	.
23	O=C(C1CCCN1c1nnc(N2CCCC2=O)s1)N1CCN(Cc2ccc3c(c2)OCO3)CC1 (centres undefined)	1.7	.
24	O=S(=O)(NCCS(=O)(=O)N1CCN(c2cccc(Cl)c2)CC1)c1ccc(F)cc1	1.1	.
25	COc1ccc(-c2nc3ccccc3c3nnc(SCc4ccccn4)n23)cc1	1.6	.
26	Cc1cccc(OCC(O)Cn2ccnc2C)c1 (centres undefined)	1	-1.4
27	CSCCC(NC(=O)c1cncc(O)c1)C(=O)O (centres undefined)	.	-1.6
28	COc1ccccc1OC(C)C(=O)Oc1cccc(-n2cnnn2)c1 (centres undefined)	-0.47	-1.5
29	CCCN(C(=O)[C@H]1[C@@H]2C[C@@H]3[C@H]1C(=O)O[C@@H]3C2)c1ccccc1F	2.4	-1.3
30	O=C(CN1CCSc2ccccc21)N1CCN(Cc2ccc3c(c2)OCO3)CC1	1.4	.
31	COc1ccc(C2CC(=O)N3CN(c4ccc(Br)cc4)CSC3=C2C#N)c(OC)c1 (centres undefined)	-1.8	6.4*
32	CCN1C(=O)C(O)(CC(=O)c2ccc(N(C)C)cc2)c2ccccc21 (centres undefined)	1	-1.1
33	COc1cc(CN2CCN(Cc3ccc(F)cc3)CC2)cc(OC)c1O	.	-3.3
34	CC1(C)Cc2c(c(N3CCOCC3)nc3sc4c(N5CCCC5)ncnc4c23)CS1	0.78	0.03
35	O=C(NC1CCCC1)C1CCCN(c2nn3c(=O)c4c(nc3s2)CCCC4)C1 (centres undefined)	-0.39	.
36	COc1ccc(OC)c(S(=O)(=O)NCC(c2ccc(N(C)C)cc2)N2CCCC2)c1 (centres undefined)	0.57	.
37	O=C1CCc2cc(S(=O)(=O)NC(C(=O)NCc3cccs3)c3ccccc3)ccc2N1 (centres undefined)	.	-0.16
38	CCCCCCCOC(=O)C1=C(C)Nc2nnnn2C1c1ccc(Cl)cc1 (centres undefined)	-0.07	0.81
39	C1=C(c2ccccc2)C2CC=C(c3ccccc3)C2C1 (centres undefined)	.	-1.4
40	O=C(NCc1cccnc1)c1noc2ncnc(N3CCCC3)c12	1.2	.

# Fetched by compound from the entries so far (5):
no.	smiles	HIV TAR-Tat	CDC25B-CDK2 inh
36	COc1ccc(OC)c(S(=O)(=O)NCC(c2ccc(N(C)C)cc2)N2CCCC2)c1 (centres undefined)	0.57	.
35	O=C(NC1CCCC1)C1CCCN(c2nn3c(=O)c4c(nc3s2)CCCC4)C1 (centres undefined)	-0.39	.
33	COc1cc(CN2CCN(Cc3ccc(F)cc3)CC2)cc(OC)c1O	.	-3.3
38	CCCCCCCOC(=O)C1=C(C)Nc2nnnn2C1c1ccc(Cl)cc1 (centres undefined)	-0.07	0.81
34	CC1(C)Cc2c(c(N3CCOCC3)nc3sc4c(N5CCCC5)ncnc4c23)CS1	0.78	0.03

# (listing goes on)
no.	smiles	HIV TAR-Tat	CDC25B-CDK2 inh
41	CCN(C(=O)c1cccnc1OCC(F)(F)F)c1ccc(Cl)cc1	.	-0.25
42	Cc1nc([N+](=O)[O-])cn1CC(=O)c1ccccc1	.	0.73
43	Nc1ncnc2c1nc(SCCC(=O)O)n2Cc1ccccc1	2.3	-2.7
44	CC1Cc2ccccc2N1C(=O)CN(C)S(=O)(=O)c1cccc2cccnc12 (centres undefined)	-1.1	-1.2
45	C=Cc1ccc(Cn2nc(-c3ccc(C)c(S(=O)(=O)N(CC)CC)c3)ccc2=O)cc1	0.48	2.8
46	CCOc1ccc(CNS(=O)(=O)c2ccc(-c3cc(C)no3)s2)cc1OC	-0.86	.
47	COC(=O)C1=NOC2C(=O)N(c3ccc(C)cc3)C(=O)C12 (centres undefined)	1.6	-0.53
48	CCn1cc(C(=O)O)c(=O)c2cc(Cl)ccc21	.	-0.81
49	CN1C(=O)C2(c3ccccc31)C(C(=O)N1CCc3ccccc31)CC1CCCN12 (centres undefined)	0.04	.
50	CC(C)C1Oc2ccccc2C2CC(c3ccccc3)=NN21 (centres undefined)	.	-1.2
51	COC(=O)C(OC(=O)c1cnn2c(C(F)(F)F)cc(-c3ccccc3OC)nc12)c1ccccc1 (centres undefined)	1.9	-1
52	Cc1cc(C)cc(-n2ccnc(NCc3cccs3)c2=O)c1	-0.36	.
53	O=C(c1nc(-c2ccc(Cl)cc2)n2c1CCCCC2)N1CCN(Cc2ccc3c(c2)OCO3)CC1	0.78	.
54	CC(C)Oc1ccc(C2CC(=O)Nc3cc4c(cc32)OCO4)cc1 (centres undefined)	1.4	0.1
55	O=C(NCCc1ccccc1)Nc1c[nH]c2ccccc2c1=O	-0.33	0.33
56	CCCCNc1ncnc2c1cnn2C	0.18	.
57	CCOCCCNC(=O)NC(C)c1c(-n2cccc2)sc(C)c1C (centres undefined)	1.3	-2.9
58	O=C(c1ccco1)N1CCN(S(=O)(=O)c2ccccc2)CC1	0.56	-0.89
59	CCOc1ccc(-n2c(=S)sc3c(=O)[nH]c(SCC(=O)NCc4ccco4)nc32)cc1	.	-1.6
60	O=C(O)C12CC3CC(C1)CC(C(F)(F)C(F)C(F)(F)F)(C3)C2 (centres undefined)	.	-1.6
61	CC(C)(C)c1nnc2sc(COc3ccc(Br)cc3)nn12	-1.3	-1.6
62	O=C(CCc1nnc2ccc(N3CCCC3)nn12)N1CCN(c2ccccc2)CC1	1.1	.
63	Cc1ccc2sc(N(CCN(C)C)C(=O)C3COc4ccccc4O3)nc2c1C (centres undefined)	1.9	.
64	CCCCN(C)C(=O)c1c2c(nc3ccccc13)C(=O)N(C1CCCCC1)C2	1.3	.
65	Cc1cc(CN2CCN(c3ccc(F)cc3)CC2)cs1	1.4	.
66	CCCC(O)(c1ccccc1)C(CN1CCOCC1)c1ccccc1 (centres undefined)	2.5	-1.3
67	CCOC(=O)/C(=C(/C)Nc1ccc(F)cc1)C1CC(=O)N(c2ccccc2)C1=O (centres undefined)	.	-0.58
68	CCC(C)NC(=O)CN1C(=O)NC2NC(=O)NC21 (centres undefined)	0.17	-0.81
69	COc1ccc(CN2CCc3nc(N4CCCC4)ncc3C2)cc1OC	0.56	.
70	CCOc1ccc2nc(SCC(=O)Nc3nc4cc(OC)ccc4s3)[nH]c2c1	.	-2.5
71	O=C1CCCc2cc(S(=O)(=O)N3CCCC3=O)ccc2N1	0.69	.
72	Cc1c(C(=O)Nc2ccc3c(c2)OCCO3)sc2ncn(CC(=O)N3CC(C)CC(C)C3)c(=O)c12 (centres undefined)	2.1	.
73	O=C(CCCc1nc(-c2ccco2)no1)N1CCN(c2ccccc2)CC1	4.8	1.4
74	CCN(CC)S(=O)(=O)N1CCCC(C(=O)NC2CCC(C)CC2)C1 (centres undefined)	0.24	.
75	CC(=Nc1ccc(Cl)cc1)c1ccsc1	.	-1.5
76	Cc1cc(Cl)ccc1OCCSc1nc(-c2ccco2)nc2cc(=O)[nH]n12	0.18	.
77	Nc1cccc(C(=O)CC2(O)C(=O)N(CCc3ccccc3)c3ccccc32)c1 (centres undefined)	-0.33	-1.1
78	COC(=O)c1ccc(OC)c(CN2C(=O)N(Cc3ccccc3)S(=O)(=O)c3ccccc32)c1	2.2	.
79	Cc1ccc(CNS(=O)(=O)c2ccc3oc(=O)c4ncn(C)c4c3c2)cc1	-0.74	.
80	O=C(Oc1ccc(N(Cc2ccco2)C2=NS(=O)(=O)c3ccccc32)cc1)c1ccco1	.	-0.71
81	CN(C)C1N(C(=O)c2cccc(Br)c2)N=C2c3ccccc3S(=O)(=O)N21 (centres undefined)	.	0.58
82	COc1cc(/C=c2\sc3nc4ccccc4n3c2=O)ccc1OCCCOc1ccc(Cl)cc1	.	-3.6
83	CC1CCC(NC(=O)Cn2ncn3c(cc4sccc43)c2=O)CC1 (centres undefined)	-1.1	-2.9
84	O=C1CC(N2CCN(Cc3ccc4c(c3)OCO4)CC2)C(=O)N1CCc1ccccc1 (centres undefined)	0.15	-0.04
85	COc1ccc(OC)c(-n2nnc(-c3nc(-c4ccccc4F)no3)c2N)c1	0.35	.
86	CCCCSc1nc2c3cc(OC)ccc3n(C)c2c(=O)n1CCO	0.73	-0.65
87	O=C1CCCc2cc(S(=O)(=O)NCCc3cccs3)ccc2N1	1.2	.
88	Cc1ccc(C2CC(C(F)(F)F)n3ncc(C(=O)N(C)C4CCCCC4)c3N2)cc1 (centres undefined)	0.91	1.6
89	Cc1nnc2c(Nc3ccc(Br)cc3F)nc3ccccc3n12	0.95	1.6
90	Cc1c(CCC(=O)O)c(=O)oc2c(C)c(O)ccc12	.	-1.2
91	CN(C)CCn1c(=O)c2c(ncn2CC(O)CO)n(C)c1=O (centres undefined)	0.95	-1.4
92	CC(C)(C)NCc1nc(-c2ccc(Cl)cc2)no1	0.95	0.89
93	CCCN(CCC)S(=O)(=O)c1ccc2c(c1)n(C)c(=O)c(=O)n2C	1.1	-0.46
94	Cc1ccc(CNc2ncnc3scc(-c4ccc(Cl)cc4)c23)o1	-0.02	.
95	Cc1cccc(-c2nc(CSCc3csc(C)c3C)c(C)o2)c1	0.05	.
96	O=C(Cn1cnc2sc3c(c2c1=O)CCCC3)NCCCC(=O)N1CCCc2ccccc21	-1.4	-1.9

# New compounds follow
no.	smiles	HIV TAR-Tat	CDC25B-CDK2 inh
97	CC(C)CC(NC(=O)Cc1ccsc1)C(=O)N/N=C/c1c(F)cccc1Cl (centres undefined)	.	-1.6
98	Cc1ccsc1CN(C(=O)COc1ccc(F)cc1)C1CCS(=O)(=O)C1 (centres undefined)	-0.99	-0.71
99	CCOC(=O)CSc1nc2sc(C)c(C)c2c(=O)[nH]1	.	-1.3
100	Cc1ccc(-c2nn3c(=O)cc(N4CCN(C(=O)c5ccco5)CC4)nc3s2)cc1	-0.33	.
101	COc1cc(C2C(C(=O)OC3CCCC3)=C(C)NC3=C2C(=O)CC(C)(C)C3)cc(Cl)c1O (centres undefined)	-1.1	-1.9
102	Cc1nn(C(C)C(=O)NCCCN2CCc3ccccc3C2)c(=O)c2c1sc1ccccc12 (centres undefined)	2.5	-2.4
103	O=C(Nc1cc(-c2cccc(Cl)c2)no1)C1Cc2ccccc2N1C(=O)c1ccccc1 (centres undefined)	1	.
104	COc1ccc2c(c1)nc(CN1CCN(c3ccccc3OC)CC1)n2C	-0.29	-1.4

# Compound profiles (already shown).
# COc1ccccc1OC(C)C(=O)Oc1cccc(-n2cnnn2)c1 (centres undefined) across the screens: HIV TAR-Tat: -0.47; CDC25B-CDK2 inh: -1.5
# COc1ccc(-c2nc3ccccc3c3nnc(SCc4ccccn4)n23)cc1 across the screens: HIV TAR-Tat: 1.6; CDC25B-CDK2 inh: .

# New compounds follow.
no.	smiles	HIV TAR-Tat	CDC25B-CDK2 inh
105	Cc1ccc(C2(O)CSC3=C(C#N)C(c4cccc(Cl)c4)CC(=O)N32)cc1 (centres undefined)	.	-1.4
106	O=c1[nH]c(SCc2ccccc2F)nc2c1CCC2	0.61	-1.7
107	Cc1ccc(S(=O)(=O)N2CCCC(c3nc(-c4ccc(Br)cc4)no3)C2)cc1 (centres undefined)	1	.
108	Cc1ccc(S(=O)(=O)Oc2ccc(Cl)cc2/C=c2\sc3nc4ccccc4n3c2=O)cc1	.	-2.6
109	CC(C)CC(=O)Nc1nnc2n1CCS2	0.61	.
110	COc1cccc(-c2noc(NC3CCCCC3)n2)c1OC	0.84	.
